YopH PTP inh: YopH tyrosine phosphatase inhibitors, primary screen, biochemical, fluorescence Ex485/Em525; YopH tyrosine phosphatase [Yersinia enterocolitica]; inhibition, %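 (about 10 µM by stock and volumes)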; hit rate 0.16% among 140,000;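 active = inhibition of 50% or more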;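 note: controls were vehicle for no effect and minimum signal wells for full effect; inactives centre near -20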
RecA intein inh: Mtb RecA intein splicing inhibitors, primary screen, biochemical, fluorescence, HTS. inhibition, %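 (about 9 µM by stock and volumes)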. cell-free RecA intein splicing. Protein RecA (Mycobacterium tuberculosis (strain ATCC 25618 / H37Rv)), P9WHJ3. hit rate 0.75% among 290,000; in the data active = inhibition above about 30%; inconclusive = no clear call, values can overlap the other calls;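 note: 0% = vehicle wells and 100% = reference inhibitor control wells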
Target sequence (P9WHJ3 whole entry, looked up): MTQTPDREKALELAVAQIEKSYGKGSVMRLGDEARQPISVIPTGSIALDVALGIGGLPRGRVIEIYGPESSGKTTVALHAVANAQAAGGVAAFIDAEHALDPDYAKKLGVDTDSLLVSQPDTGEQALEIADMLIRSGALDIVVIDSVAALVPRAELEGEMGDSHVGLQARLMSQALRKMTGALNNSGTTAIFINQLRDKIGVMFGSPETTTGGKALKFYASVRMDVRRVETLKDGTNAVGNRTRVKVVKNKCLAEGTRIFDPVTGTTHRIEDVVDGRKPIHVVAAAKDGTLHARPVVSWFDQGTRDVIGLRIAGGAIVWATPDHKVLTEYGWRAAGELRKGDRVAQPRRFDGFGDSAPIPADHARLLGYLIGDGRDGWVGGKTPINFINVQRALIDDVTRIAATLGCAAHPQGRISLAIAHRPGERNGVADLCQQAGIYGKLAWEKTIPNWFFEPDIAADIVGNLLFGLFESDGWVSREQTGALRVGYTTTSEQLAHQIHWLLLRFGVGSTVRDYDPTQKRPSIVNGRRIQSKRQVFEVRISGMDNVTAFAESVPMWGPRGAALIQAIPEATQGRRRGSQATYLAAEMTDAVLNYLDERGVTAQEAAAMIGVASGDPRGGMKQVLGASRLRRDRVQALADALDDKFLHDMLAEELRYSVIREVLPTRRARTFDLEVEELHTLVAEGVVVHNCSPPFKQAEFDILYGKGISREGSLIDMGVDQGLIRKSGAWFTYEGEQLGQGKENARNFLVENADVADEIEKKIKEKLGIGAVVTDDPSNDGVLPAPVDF
Mtb H37Rv: M. tuberculosis H37Rv growth inhibitors, H37Rv strain (AID 1626) | M. tuberculosis H37Rv growth inhibition; higher % means a stronger effect | inhibition, % at 10 µM; hits with a dose series show IC50 in µM | hit rate 0.95% among 220,000;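 active = confirmed in a dose series; inconclusive = inhibition above 80% but not taken into the dose series; inactive = below 80% or under 30% at every dose of the series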;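 note: bacteria incubated seven days before Alamar blue readout; 0% = bacteria only wells and 100% = bacteria with antibiotic wells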
Mtb bLac sens: beta-lactam sensitization of Mtb H37Rv, H37Rv | M. tuberculosis H37Rv growth with meropenem, percent inhibition; hits of this screen are not shown here | inhibition, % at 25 µM | hit rate 0.27% among 330,000 | AID 434955, 2010;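 active = about 74% or more and at least 40 points above the plate without the antibiotic, then above 30% in a dose series; inconclusive = first-round hits that could not be retested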;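 note: growth measured after seven days incubation then overnight dye step; 0% = bacteria only wells and 100% = bacteria with antibiotic; twin plates without the antibiotic show which effects depend on it; some results filed as inactive read as strong as hits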
Arbovirus inh: antivirals against arbovirus infection, primary screen, cell-based, full library, 10K replicate subset | arbovirus infection cell-based antiviral screen | inhibition, % at 10 µM | hit rate 0.37% among 200,000 | AID 1251, 2008;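 active = inhibition from about 30%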;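 note: bluetongue infection of BSR cells; cell survival read as ATP light after 72 h; 0% = infected wells without compound and 100% = uninfected wells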
Arbovirus inh repeat: also measured in Arbovirus inh; calls as there; inhibition, %; measured here: 10K subset replicate screen; many hits read low in the repeat;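 first of two repeat runs on a subset; 0% = infected and 100% = uninfected wells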
* = called active by the depositor; u = inconclusive; x = no result given. Only part of the results is shown (hit frequency here may not be typical).

SMILES	YopH PTP inh	RecA intein inh	Mtb H37Rv	Mtb bLac sens	Arbovirus inh	others
Cc1cccc(N(CC(=O)N/N=C/c2ccc(C(=O)O)cc2)S(=O)(=O)c2ccccc2)c1C	x	-0.7	x	6	x
O=C1CN(C(=O)c2ccccc2Br)C(c2ccc(F)cc2)c2cc(F)ccc2N1 (stereo unspecified)	x	-1.9	x	-1	x
Cc1ccccc1OCCC(=O)OCC(=O)Nc1ccc(N2CCOCC2)cc1	x	-0.6	x	-5	x
COC(=O)C(=Cc1ccc(-c2ccsc2C(=O)OC)o1)C(=O)OC	x	-1.6	0%	48	x
Cc1nn2c(NCc3cccnc3)c3c(nc2c1-c1ccccc1)CCC3	x	-1.2	7%	32	x
CC(C)(C)C(=O)Nc1ccc(Cc2ccncc2)cc1	x	-0.9	x	-6	x
O=C(Nc1cccc(C(=O)N2CCN(Cc3ccccc3)CC2)c1)c1ccccc1	-22	1.4	-4%	0	-7
CCCCCCCC1CC(/C(C)=N/NC(N)=O)OC1=O (stereo unspecified)	9	-0.8	-4%	4	8
Cc1cc(C)c2c(C)c(C(=O)Nc3c(C)n(C)n(-c4ccccc4)c3=O)oc2c1	-26	-3.9	12%	8	1
Cc1noc(C)c1C(=O)NCCCc1ccccc1	-15	-1.3	-6%	-7	2	Arbovirus inh repeat=-3
COC(=O)C[n+]1cccc2ccccc21	x	-78	9%	-6	0
CCOC(=O)C1=C(COc2ccccc2)NC(=O)NC1c1ccc(Cl)cc1 (stereo unspecified)	x	0.1	x	-10	x
CN1C(=O)CC(c2ccccc2)CC1=O	x	-1.1	x	-4	x
CC(=O)Nc1c(O)nc(SCC(=O)N2CCN(c3ccc(F)cc3)CC2)[nH]c1=O	-28	4.1	-13%	2	4
CC(C)OC(=O)CSc1nc2cccnc2n1C1CCCCC1	8	1.1	3%	81	2
CCOc1ccc(N2C(=O)NC(=O)/C(=C\c3cc(OC)c(OC)cc3[N+](=O)[O-])C2=O)cc1	-14	9.8	0%	2	3
CCCOc1cccc(C(=O)NCCNC(=O)c2ccco2)c1	x	-0.6	x	4	x
COc1ccc(NC(=O)c2oc3ccccc3c2NC(=O)COc2ccccc2OC)c(OC)c1	12	-2.9	1%	2	-18
O=C(COC(=O)c1sc2ccccc2c1Cl)NCC1CCCCC1	-14	0.2	u	88	1
CCCC1=C(C(=O)OCC)C(c2cccs2)C(C#N)=C(N)O1 (stereo unspecified)	-17	-9.7	-6%	-6	2
CSCCC(NC(=O)COc1ccccc1)C(=O)NCc1cccs1 (stereo unspecified)	x	0.6	x	-7	x
OC1(C#CCN2CCOCC2)CCCCC1	x	-1.6	-1%	1	2
CCOC(=O)c1ccc(-n2c(-c3ccco3)nc3ccccc3c2=O)cc1	x	1.0	2%	4	x
Cc1ccc(-n2nc(C)c(NC(=O)CCl)c2C)cc1	-23	25	3%	96	35*
CCCCN1C=CC(=C2N=c3cccc([N+](=O)[O-])c3=N2)C=C1	-24	11	9%	6	3
Next structures:
SMILES	YopH PTP inh	RecA intein inh	Mtb H37Rv	Mtb bLac sens	Arbovirus inh	others
Cc1c(CC(=O)N[C@@H](CCCNC(N)=O)C(=O)O)c(=O)oc2cc3oc4c(c3cc12)CCCC4	x	-5.4	x	-3	x
CCOC(=O)c1sc(C)c2c1NC1(CCCCC1)NC2=O	-27	0.4	3%	x	-11
Cn1nc(C(C)(C)C)c([N+](=O)[O-])c1C(=O)Nc1ccccc1	-28	-0.4	-9%	-2	1
CCC(C)(C(=O)NC1CCCCC1)N(C(=O)c1cnccn1)c1c(C)n(C)n(-c2ccccc2)c1=O (stereo unspecified)	-47	-2.2	-6%	5	1
O=C(CN1CCOCC1)NCc1ccc(F)cc1	x	0.8	x	-4	x
COc1ccc(/C=N/NC(=O)c2ccc(COc3cccc4cccnc34)cc2)cc1OC	x	-1.1	-1%	-4	-12
CC(C)Cn1c(N)c(C(=O)COC(=O)c2ccc3ccccc3n2)c(=O)n(C)c1=O	-37	-3.8	3%	21	5
O=C(CSc1ccc(-c2ccccc2)nn1)NCC1CCCO1 (stereo unspecified)	x	1.2	-5%	-6	-3
Cc1ccc2cc(C3CC(c4ccco4)=NN3C(=O)CCC(=O)O)c(Cl)nc2c1 (stereo unspecified)	-18	2.1	-9%	-7	3
CCN1CCN(C(=O)COc2ccc(S(=O)(=O)NC(C)C)cc2)CC1	2	0.3	-7%	-3	4
O=c1c2ccccc2nc(N2CCCC2)n1-c1ccc(Cl)cc1	-27	1.5	4%	-5	-2
Cc1ccccc1NC(=O)CCN1CCN(C)CC1	x	-1.2	x	-8	x
CN1C(C)(C)c2ccccc2OS1(=O)=O	x	-0.5	x	-5	x
COC(=O)C(CSCc1ccccc1)NC(=O)CSc1nc(N)cc(=O)[nH]1 (stereo unspecified)	x	-3.5	-2%	-15	-2
CC(C)(C)NC(=O)NC(=O)COC(=O)CCCc1c[nH]c2ccccc12	-11	4.5	-1%	2	3
Cc1cc(-n2cnc3c(=O)[nH]cnc32)ccc1N	x	0.5	-15%	2	x
N#Cc1c(NC(=O)Cn2nc(C(F)(F)F)c3c2CCCC3)sc2c1CCC2	-18	0.8	-9%	-1	-3
O=c1[nH]c(=O)n(-c2cccc3ccccc23)c(O)c1/C=N/N1CCCCC1	x	-1.9	1%	11	x
CCNS(=O)(=O)c1ccc(NC(=O)c2cc(C(F)(F)F)nn2C)cc1	0	0.7	-1%	21	-7
Cc1ccc(C)c(NC(=O)c2cnccn2)c1	x	-1.0	x	9	x
CCCn1nnnc1NCc1cccn1C	-24	-1.2	-5%	-5	4
CC(C)Cc1nnc(NC(=O)CCN2C(=O)c3ccccc3C2=O)s1	-40	1.2	5%	6	2	Arbovirus inh repeat=7
CC(c1nccs1)N(C)C(=O)c1cn(Cc2cccc3ccccc23)nn1 (stereo unspecified)	x	3.1	x	-8	x
CCOC(=O)c1nnn(-c2nonc2N)c1-c1cccs1	-12	-1.1	-1%	0	7
CC1CC(C)CN(S(=O)(=O)c2ccc(NN)nc2)C1 (stereo unspecified)	x	-3.6	-17%	0	x
Next part
SMILES	YopH PTP inh	RecA intein inh	Mtb H37Rv	Mtb bLac sens	Arbovirus inh	others
NC(=O)NCc1ccc(Cl)cc1	-31	-1.5	-4%	11	5
O=C1CC(c2ccccc2)C(=O)N1c1cccc(O)c1 (stereo unspecified)	-27	-2.1	-2%	-9	1
Cc1nc(NC(=O)CSc2nnc3ccccn23)c(Cl)cc1Cl	-128	-2.6	-2%	1	6
O=C1N/C(=N\c2ccccn2)SC1Cc1ccc(Cl)cc1 (stereo unspecified)	x	1.1	50%	27	-15
O=C(C1CCN(S(=O)(=O)c2ccc(Br)s2)CC1)N1CCN(C2CCCCC2)CC1	x	0.1	-1%	-5	-16
CC(C)(C)NC(=O)CSc1nncn1NCc1c(Cl)cccc1Cl	-34	-1.6	-2%	-11	2
C[C@H]1CN=C(Nc2ccccc2)N1CCCC1CCCCC1	x	0.4	x	-3	x
C=CCOc1c(Cl)cc(C2NC(=O)NC(C)=C2C(=O)OC)cc1Cl (stereo unspecified)	-10	1.9	-5%	1	-16
O=C(c1ccc(CS(=O)Cc2ccccc2Cl)o1)N1CCN(C2CCCCC2)CC1 (stereo unspecified)	x	1.6	x	-11	x
CCCCN(CCCC)/C(N)=N/c1nc(C)cc(C)n1	x	-5.5	2%	-8	6
O=C(NNc1cccc(Cl)n1)c1ccc(Cl)nc1	0	x	0%	1	-8
COc1ccc(Oc2nnnn2-c2ccccc2)cc1	-21	-0.7	10%	-6	-6
Nc1nc[nH]c(=O)c1N=Cc1ccccc1	x	-10.0	10%	-17	x
Cc1ccc(Cn2nc(C)c(NC(=O)c3cc(-c4ccc5c(c4)OCO5)on3)c2C)cc1	-38	0.0	1%	-8	-14
COc1cccc(NC(=O)c2ccccc2-c2nc(-c3ccccc3)no2)c1	-44	11	10%	-1	5
O=C(NCc1nnc2c3ccccc3c(-c3ccccc3)nn12)c1ccc(Cl)cc1	2	11	3µM*	100	-16
O=C(CSc1nc(-c2ccco2)cc(C(F)(F)F)n1)N1CCN(c2cccc(Cl)c2)CC1	31	17	10%	68	-7
CCCCCCn1c(SCCC)nc2c1c(=O)[nH]c(=O)n2C	-9	1.9	10%	-6	-12
CCn1cc(CNCc2cn(-c3ccccc3C)nc2-c2ccc(OC)c(F)c2)cn1	x	0.5	0%	-9	-2
CCOc1ccc(C(=O)Nc2ccccc2N2CCOCC2)cc1	25	1.2	0%	-2	-1
CCN(CC)S(=O)(=O)c1ccc2c(c1)nc(SCC(=O)N1CCOCC1)n2-c1ccccc1OC	-37	-5.4	-1%	0	-9
CCOc1ccc(-c2nc(N)ncc2-c2ccccc2)c(O)c1	-15	1.3	-4%	4	8
Cn1c(=O)c2c(nc(N/N=C/c3cccnc3)n2Cc2ccc(F)cc2)n(C)c1=O	x	-1.0	-10%	-1	x
CC(C)CCNC(=O)c1ccc2nc[nH]c2c1	-26	-1.1	-8%	-1	16
N#Cc1ccc(CSc2nnc(-c3cccnc3)o2)cc1	x	0.1	0%	-2	2

For convenience, two of the compounds above:
SMILES	YopH PTP inh	RecA intein inh	Mtb H37Rv	Mtb bLac sens	Arbovirus inh	others
Cc1ccc(Cn2nc(C)c(NC(=O)c3cc(-c4ccc5c(c4)OCO5)on3)c2C)cc1	-38	0.0	1%	-8	-14
COc1cccc(NC(=O)c2ccccc2-c2nc(-c3ccccc3)no2)c1	-44	11	10%	-1	5

Next entries follow.
SMILES	YopH PTP inh	RecA intein inh	Mtb H37Rv	Mtb bLac sens	Arbovirus inh	others
Cc1ccc(S(=O)(=O)N2CCCCC2)cc1NC(=O)CSc1nnnn1C	x	0.0	-5%	-8	x
COc1ccc(C2CC(=O)c3cnc(NC(=O)c4ccco4)nc3C2)cc1 (stereo unspecified)	x	1.1	x	4	x
CC(C)(C)NC(=O)C(=O)NNC(=O)c1cccc([N+](=O)[O-])c1	x	-1.9	20%	30	-1
CCN(CC)C(=O)c1sc(NC(=O)c2ccco2)c(C#N)c1C	-42	-0.7	-7%	9	1
COc1ccc(OC)c2sc(NC(=O)CCS(=O)(=O)c3ccccc3)nc12	-31	1.7	-4%	0	-9	Arbovirus inh repeat=-5
Cn1c(NC(=O)c2ccccc2)nc2ccccc21	x	2.4	x	100	x
COc1ccc(-c2n[nH]c(C)c2-c2ccccc2OC)c(O)c1	x	5.6	x	5	x
CCn1c(SCC(=O)c2ccc(O)c(O)c2)nnc1-c1ccccc1	-26	-1.0	x	-2	-22
COCCNc1nc2c(-c3cccc(C(F)(F)F)c3)nnn2c2ccccc12	x	-17	x	3	x
CS(=O)(=O)c1ccc2nc(NC(=O)c3cccs3)sc2c1	2	x	-9%	27	-8
O=C(CS(=O)(=O)c1ccccc1)Nc1ccc(S(=O)(=O)Nc2ccccn2)cc1	x	-0.5	-2%	1	8
Cc1nc(Nc2ccccc2Cl)sc1C(=O)Nc1ccccc1	-21	4.9	20%	0	-11
O=C(c1ccccc1NS(=O)(=O)c1ccc(Cl)cc1)N1CCc2ccccc21	-23	6.0	-2%	-5	18
CCCCC(O)(CCCC)C(=O)NN(C(=O)OC)c1ccccc1	-16	5.2	4%	-1	-4
C=CCSC1=NC(N)=C(C#N)C2(CCCCC2)C1C(N)=O (stereo unspecified)	-30	-1.2	-7%	4	-2	Arbovirus inh repeat=-2
Cc1nc([N+](=O)[O-])c(Br)n1CC(=O)c1ccc(Cl)cc1	-3	1.7	17µM*	100	-42
CCN1CCN(c2nc3c(C)cccn3c(=O)c2/C=C(\C#N)S(=O)(=O)c2ccc(C)cc2)CC1	-40	-82	5%	-2	-15
C=CCn1c(CCSCc2ccc(OC)c(C)c2)n[nH]c1=S	x	1.4	-4%	-7	-3
O=C(CCCC(=O)N1CCCC1)N1CCCC1	x	1.7	x	2	x
CC1CC(C)(C)NC(=O)O1 (stereo unspecified)	-64	1.7	-3%	-12	-1
O=S(=O)(NC1CCCC1)c1cccc(S(=O)(=O)N2CCC(n3nnc4ccccc43)CC2)c1	-46	7.3	-1%	-4	-7
CCN1CCN(C(c2cccc(OC)c2)c2sc3nc(C)nn3c2O)CC1 (stereo unspecified)	-31	0.9	-3%	-1	1

Pulled by structure from above (four):
SMILES	YopH PTP inh	RecA intein inh	Mtb H37Rv	Mtb bLac sens	Arbovirus inh	others
Cc1nc(Nc2ccccc2Cl)sc1C(=O)Nc1ccccc1	-21	4.9	20%	0	-11
COc1ccc(-c2n[nH]c(C)c2-c2ccccc2OC)c(O)c1	x	5.6	x	5	x
CS(=O)(=O)c1ccc2nc(NC(=O)c3cccs3)sc2c1	2	x	-9%	27	-8
COc1ccc(OC)c2sc(NC(=O)CCS(=O)(=O)c3ccccc3)nc12	-31	1.7	-4%	0	-9	Arbovirus inh repeat=-5

Bioassay records: PubChem, several laboratories
